TRPML1 agonist = activates the human TRPML1 channel | Q9GZU1 | TRPML1-expressing cells, Ca2+ dye fluorescence, FDSS; host cell line not named in the record; reference of the full effect not given here | activation, % (no concentration beside the values) | 0.12% of 410,000 active | AID 624414; in the data active = activation above about 50%; inconclusive = about 30% to 50%; inactive = below about 30%; further: 0% is about no effect; the text of the record puts the active cut at 80%
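Agonist activity was taken from a 110 s kinetic Ca2+ dye read on the FDSS after pinning compounds onto TRPML1-DL cells. The cells were seeded at 1,500/well with Tet inducer, incubated about 16 h, then dye-loaded at room temperature.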
TRPML1 blocker = inhibitors of human TRPML1 channel. Q9GZU1. activity change, negative = inhibition, % (no concentration beside the values). 0.02% of 390,000 active. TRPML1-inducible cells, Ca2+ dye fluorescence, FDSS; hits give low values; inhibition of EC80 agonist-evoked calcium signal; in the data active means activity change below about -50%; inconclusive means about -30% to -50%; inactive means above about -30%;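 further: stimulus is agonist 54-4 at its EC80 concentration; on the % scale 0 is the no-effect control and ±100 the full control effect; compound concentration not given in the record; the text of the record puts the active cut at -80%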
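Calcium fluorescence in TRPML1-DL cells induced overnight with Tet: a 110 s read after compound pin addition, then a 110 s antagonist read after challenge with 54-4 at 4 uM final (EC80).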
TRPV1 potentiator = human TRPV1 potentiation; Q8NER1; TRPV1-expressing cells, Fluo-8 calcium influx, capsaicin EC20 potentiation; host cell line not named in the record; control for the full effect not named in the record; potentiation, % at 8.33 µM; 0.02% of 320,000 active; active means potentiation above 80%; inconclusive means 30% to 80%; inactive means below 30%; further: 0% is about no effect
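TRPV1-expressing cells were cultured overnight at 35.5C and loaded with Fluo-8 calcium dye for 40 to 90 min at room temperature. After a 10 s baseline, compound was added and calcium influx was read kinetically for 3 min (ex 480/em 520 nm).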
D2 PAM = potentiates the human D2 dopamine receptor allosterically | P14416 | DiscoveRx D2 beta-arrestin cells, luminescence, 90 min; 100% = 57 uM dopamine signal | potentiation, % (concentration not given with the values) | 0.23% of 360,000 active; active = potentiation of 50% or more; inconclusive = 30% to 50%; inactive = 30% or less;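 further: compound concentration not given in the record; tested on top of an EC20 dose of dopamine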
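PathHunter D2 cells, attached overnight at 37 deg C, received compound in DMSO plus dopamine at EC20 (50 nM final) for 90 min at 37 deg C. Beta-arrestin recruitment was read as luminescence after 1 h with detection reagent at ambient temperature.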
Six1-Eya2 blk = Six1/Eya2 interaction inhibition; AlphaScreen GST-Six1/His-Eya2 binding, biochemical; hits give low values; control for the full effect not named in the record; 0.56% of 360,000 active; activity change, % (test concentration not listed); in the data active = activity change below about -65%; inconclusive = about -30% to -65%; inactive = above about -30%; further: on the % scale 0 is the no-effect control and ±100 the full control effect; compound concentration not given in the record
Target sequence (O00167 whole entry, looked up): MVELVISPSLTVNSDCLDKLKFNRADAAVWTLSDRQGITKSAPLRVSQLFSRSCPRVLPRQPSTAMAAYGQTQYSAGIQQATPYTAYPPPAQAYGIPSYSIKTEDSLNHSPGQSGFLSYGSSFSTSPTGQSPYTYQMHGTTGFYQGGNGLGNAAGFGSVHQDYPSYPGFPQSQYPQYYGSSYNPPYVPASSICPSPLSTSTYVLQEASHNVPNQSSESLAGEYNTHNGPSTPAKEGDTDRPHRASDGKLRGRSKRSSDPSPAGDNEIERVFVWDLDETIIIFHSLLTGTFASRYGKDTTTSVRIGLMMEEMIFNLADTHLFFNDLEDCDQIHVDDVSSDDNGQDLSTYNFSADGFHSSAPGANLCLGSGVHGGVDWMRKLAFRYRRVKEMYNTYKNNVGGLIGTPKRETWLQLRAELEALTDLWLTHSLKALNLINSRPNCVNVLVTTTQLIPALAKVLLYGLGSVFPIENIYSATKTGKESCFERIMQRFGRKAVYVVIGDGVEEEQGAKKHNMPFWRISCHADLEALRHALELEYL
Target sequence (Q15475 whole entry, looked up): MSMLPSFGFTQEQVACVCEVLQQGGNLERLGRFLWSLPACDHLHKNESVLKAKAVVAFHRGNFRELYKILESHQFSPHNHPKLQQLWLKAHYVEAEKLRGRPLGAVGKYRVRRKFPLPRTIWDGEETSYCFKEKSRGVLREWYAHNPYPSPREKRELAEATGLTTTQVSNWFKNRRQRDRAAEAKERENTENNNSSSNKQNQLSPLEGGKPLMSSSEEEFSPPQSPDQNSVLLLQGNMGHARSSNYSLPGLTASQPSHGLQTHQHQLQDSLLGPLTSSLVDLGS
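Compounds are tested against tagged Six1 and Eya2 proteins bridged by glutathione donor and nickel acceptor beads; after a one-hour incubation at 37 °C without light, AlphaScreen emission is recorded.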
CtBP-E1A blk = blocks the CtBP interaction with E1A | AlphaScreen GST-E1A/His-CtBP binding, 1536-well; hits give low values; control for the full effect not named in the record | 0.49% of 340,000 active | activity change, % (test concentration not listed) | AID 651724; in the data active means activity change below about -65%; inconclusive means about -30% to -65%; inactive means above about -30%; further: on the % scale 0 is the no-effect control and ±100 the full control effect; compound concentration not given in the record
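Steps: dispense buffer (Tris pH 8.0, NaCl 300 mM, TCEP 1 mM, BSA, Tween 20); add 5X protein mix (GST-E1A, His-CtBP, 125 nM each); pin 23 nL compound; 2 h at 37 °C, dark; add 5X beads (50 ug/mL); 1 h; read.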
Starred values were filed as active, the others as inactive; ? = inconclusive; · = no result given; & = joins results of further samples.

#	mol	TRPML1 agonist	TRPML1 blocker	TRPV1 potentiator	D2 PAM	Six1-Eya2 blk	CtBP-E1A blk
1	Cc1ccc(S(=O)(=O)/N=C(/Nc2cccc3ccccc23)c2ccc(F)cc2)cc1	1.2	38.0	16.4	-14.9	-11.3	-8.5
2	CCOc1ccc(CCN2C(=S)N([C@@H](CC(C)C)CN3CCC[C@@H]3CN3C(=S)NC[C@@H]3Cc3ccccc3)C[C@@H]2Cc2ccc(O)cc2)cc1	-0.4	0.3	·	-7.4	-8.6	-13.1
3	CC(=O)c1cc2c(cc1NS(=O)(=O)c1ccc(C)cc1)OCCO2	1.9	24.5	2.8	10.2	0.0	22.8
4	O=c1onc(-c2cccnc2)n1-c1ccccc1F	-0.5	-4.5	3.4	11.5	12.7	·
5	ON=C1c2ccccc2-c2ccccc21	2.6	10.2	-1.8	-3.5	2.8	0.2
6	O=C(Nc1ccc(Oc2cccnc2)cc1)c1ccc([N+](=O)[O-])cc1	1.2	-29.5	4.9	1.0	8.0	7.5
7	CCOC(=O)c1cc(C)sc1NC(=O)CSc1nccn1C	1.4	3.4	9.0	-0.8	-10.0	-2.6
8	O=C(CCCn1cnc([N+](=O)[O-])n1)Nc1cccc(Cl)c1Cl	-0.3	23.3	-13.8	23.8	2.1	0.0
9	CC(Oc1ccc(Cl)cc1)C(=O)NCC1CCCO1 (centres undefined)	-0.4	-1.0	-5.3	-0.4	9.0	2.7
10	O=C(/C=C/c1ccccc1)NCC(=O)N/N=C\c1cccnc1	0.5	25.3	-35.4	-11.3	0.0	·
11	COc1ccc(-c2cnnn2-c2ccc(NC(=O)c3ccco3)cc2)cc1OC	-0.2	-3.9	-14.8	-15.9	2.4	0.8
12	Cc1ccc(C)c(NC(=O)CSc2nc3ccccc3nc2N2CCOCC2)c1	-0.9&-0.1	35.8&6.3	-14.5	-6.1	0.8	-0.9
13	CN(C)/C=N/NC(=O)c1ccccc1	-0.3	0.7	-14.4	-6.9	6.3	·
14	Cc1cc(C)nc(Nc2ccc(C)c([N+](=O)[O-])c2)n1	2.1	-8.4	13.6	-1.8	-8.8	-14.8
15	Cc1noc(C)c1COc1ccc(C(=O)OCC(=O)OC(C)(C)C)cc1	0.8	12.8	-8.5	7.8	10.0	8.9
16	CSc1ccc(S(=O)(=O)N(CC(=O)NN=C2CCN(C)CC2)c2ccc(C)cc2)cc1	0.0	16.9	11.7	-9.0	9.7	·
17	CS(=O)(=O)Cc1nc2ccccc2n1CC(=O)Nc1cccc(S(=O)(=O)N2CCCC2)c1	1.5	12.5	·	-1.6	8.7	6.7
18	COC(=O)C1=C(C)N(Cc2ccccc2)C(=NCCCOC(C)C)N[C@H]1c1ccccc1	-0.6	-6.6	·	-11.4	-8.6	-2.7
19	O=C(Nc1ccc(Br)cn1)c1ccc2ccccc2c1	-0.7	-2.4	3.5	-8.4	0.1	·
20	CCCCc1ccc(NS(=O)(=O)c2c(C)n(C)c(=O)n(C)c2=O)cc1	0.7	8.5	14.0	-7.6	0.0	0.0
21	NC(=O)CC(NC(=O)Cc1ccc(Br)cc1)c1ccc(NCC2CC2)c([N+](=O)[O-])c1 (centres undefined)	-0.2	36.0	6.1	-1.6	1.2	0.0
22	CCC1CCc2sc(C(=O)NCC(c3ccccc3OC)N3CCCC3)cc2C1 (centres undefined)	3.9	3.2	-2.1	-3.6	-11.3	-11.6
23	CN(C)c1cc(=O)n2c(n1)SCCC2	-0.4	0.4	-18.4	1.7	-5.0	1.5
24	COC(=O)c1ccc(CSc2nnc(CNC(=O)c3cccs3)o2)o1	-0.4	52.1	13.5	-16.3	0.0	3.9
25	Cc1nn(CC(=O)NCCc2ccc(Cl)cc2)c(C)c1[N+](=O)[O-]	0.0	-2.1	-1.9	-24.8	-0.6	3.0
26	Cn1cnc(C(=O)N2CCN(C(=O)OC(C)(C)C)CC2)c1C(=O)N1CCN(C(=O)OC(C)(C)C)CC1	-0.2	-1.2	2.0	-12.3	6.1	9.8
27	O=C(COC(=O)CSc1cc(Cl)ccc1Cl)NCc1ccc2c(c1)OCO2	3.0	-17.6	-6.9	1.1	1.1	10.9
28	CCOC(=O)CSc1ncc(OC)c(Sc2ccc(OC)cc2)n1	0.9	12.7	?	2.2	9.9	8.9
29	O=C(CNC(=O)c1ccco1)NCC(=O)OCc1ccc(F)cc1	-0.5	17.4	-1.4	-6.9	0.5	1.9
30	Cn1c(=S)sc2ccc3ccccc3c21	0.6	7.0	·	-5.9	-5.2	7.5
31	CCOC(=O)NN=C1CN(S(=O)(=O)c2ccc(C)cc2)C1	-0.4	-3.7	1.0	4.3	-4.1	-4.0
32	COc1ccccc1CC(=O)N1CCC(CCC(=O)NC2CC2)CC1	0.1	-9.7	?	-10.6	2.3	-3.3
33	CCOC(=O)N1CCC(c2cc(=O)n(-c3ccccc3)[nH]2)CC1	0.3	5.2	-1.1	-9.6	-0.8	-4.8
34	CC[N+](CC)(CC#Cc1ccccc1)CC(=O)c1ccc(Cl)cc1	-0.5	-11.2	1.5	-31.5	11.6	-2.9
35	COc1ccc(CCNC(=O)C2CC(=O)N(c3ccccc3)C2)cc1OC (centres undefined)	-0.3	-8.7	-5.2	5.4	4.2	3.7
36	CC1CC(C)CN(C(=O)CCNC(=O)Cn2cnc3ccccc3c2=O)C1 (centres undefined)	-0.1	-1.9	-17.8	-3.6	6.0	-3.2
37	CN(C)C(=O)c1ccc(NC(=O)c2cccc(S(=O)(=O)N3CCN(Cc4ccccc4)CC3)c2)cc1	-0.8	11.9	·	-0.9	-2.5	-10.8
38	O=C(NCCc1ccccc1)c1ccc(-c2ccccc2Cl)o1	1.7	8.8	-28.7	-97.3	4.5	-19.4
39	O=C(COc1cc(Cl)ccc1Cl)Nc1nnc(CC(=O)N2CCOCC2)s1	0.1	-2.4	0.2	-0.2	1.7	-3.8
40	COc1ccc2[nH]c(C(=O)N3CCCN(Cc4ccc(F)cc4)CC3)cc2c1	1.6	7.8	-8.3	-5.3	-4.8	-22.8

Looked up one by one from the list above, two records:
#	mol	TRPML1 agonist	TRPML1 blocker	TRPV1 potentiator	D2 PAM	Six1-Eya2 blk	CtBP-E1A blk
37	CN(C)C(=O)c1ccc(NC(=O)c2cccc(S(=O)(=O)N3CCN(Cc4ccccc4)CC3)c2)cc1	-0.8	11.9	·	-0.9	-2.5	-10.8
38	O=C(NCCc1ccccc1)c1ccc(-c2ccccc2Cl)o1	1.7	8.8	-28.7	-97.3	4.5	-19.4

(further entries)
#	mol	TRPML1 agonist	TRPML1 blocker	TRPV1 potentiator	D2 PAM	Six1-Eya2 blk	CtBP-E1A blk
41	NNC(=O)c1cccn(Cc2ccc(Cl)cc2Cl)c1=O	0.7	-1.1	0.9	-5.0	-9.4	-0.9
42	COc1ccc(CCNC(=O)c2nnn(CC(=O)Nc3cccc(F)c3)c2N)cc1OC	3.3	-19.7	10.9	-1.6	17.5	-6.8
43	O=S(=O)(NCCOCC(F)(F)C(F)F)c1ccc2oc3ccccc3c2c1	2.0	-3.0	1.9	-7.9	2.8	2.9
44	Nc1ccc(Nc2nc(-c3cc4ccccc4oc3=O)cs2)cc1	0.6	4.6	-3.2	20.6	-17.5	-15.7
45	Cc1nc(NCCNC(=O)c2ccco2)c2c(C)c(C)sc2n1	2.7	-2.0	-0.2	-8.3	-18.3	-25.4
46	Cc1ccc(S(=O)(=O)N(C)C)cc1NC(=S)NCCCn1ccnc1	0.6	-4.1	-0.6	-22.3	0.0	·
47	C/C(=N/NC(=O)c1cc(-c2ccc(Br)s2)[nH]n1)c1ccco1	1.3	14.1	-8.0	-11.2	-6.7	-18.2
48	O=C1C=C(c2cccc(Br)c2)C[C@@H](c2ccc(F)cc2)C1	1.4	-4.2	-5.6	-7.3	3.6	·
49	Cc1ccc(NC(=O)CCSc2nnc(C)s2)cc1	-0.4	-17.5	-14.6	4.5	-0.5	1.0
50	CC(C)(C)NS(=O)(=O)c1ccc2nc(NC(=O)Cc3cccs3)sc2c1	0.0	-12.2	13.0	-12.2	1.9	2.8
51	COc1ccc(C(=O)NCC(=O)OCC(=O)c2ccc3c(c2)NC(=O)CO3)cc1	-0.7	20.6	9.5	-10.1	3.3	7.8
52	Cc1ccc(C(=O)CCC(=O)OCC(=O)N(C)c2c(N)n(Cc3ccccc3)c(=O)[nH]c2=O)cc1	-1.1	4.2	-0.7	2.5	-0.9	2.6
53	O=C(Nc1nc(-c2cccs2)c(C(=O)C(F)(F)F)s1)c1ccco1	0.7	-2.5	1.9	-8.2	-2.0	1.8
54	Cc1ccc2sc(-c3ccc(NC(=O)/C=C\C(=O)O)cc3)nc2c1	0.0	3.3	?	-15.6	-12.2	-13.1
55	Cc1ccc2[nH]c(=O)c3cc(C(=O)N(C)Cc4ccco4)sc3c2c1	0.1	4.7	·	-1.5	-23.9	-1.6
56	CCn1c(SCC(=O)c2cc(C)ccc2C)nc2cc(S(=O)(=O)N3CCOCC3)ccc21	0.1	6.1	17.5	10.5	-19.2	-26.1
57	O=C(NCCc1ccccc1)C1CCN(S(=O)(=O)c2ccccc2)CC1	2.8	13.1	-17.9	5.1	1.0	1.0
58	COc1cc(OC)c(C=CC(=O)c2ccccc2O)c(OC)c1	0.9	16.3	·	-43.6	0.0	0.0
59	COc1cc2c(cc1OC)C(c1cc(OC)c(OC)c(OC)c1)NCC2 (centres undefined)	3.2	-20.8	-7.9	-9.6	-2.4	2.2
60	CC(C)c1ccc(/C=N/NC(=O)c2ccccc2Cl)cc1	7.1	-4.8	5.7	-7.3	-3.3	1.3
61	Cc1ccc(Cc2c(C(C)(C)C)nc3cc(C)c(Br)c(C)n23)cc1	-0.6	·	·	-0.7	3.6	0.3
62	COc1ccc(S(=O)(=O)N2CCCCC2)cc1NC(=O)CCCOc1ccc(C)cc1	-0.5	1.8	20.4	-11.4	-2.0	13.2
63	Cc1ccc(NC(=O)C2(S(=O)(=O)c3ccc(Cl)cc3)CC2)c(Br)c1	1.9	-23.6	2.0	-4.5	0.0	11.6
64	O=C(CN1C(=O)CCSc2ccccc21)NC1CCCCC1	0.4	-9.9	-7.1	-7.0	8.9	·
